Compound activity as filed in PubChem BioAssay.
HPGD inh – qHTS Assay for Inhibitors of HPGD (15-Hydroxyprostaglandin Dehydrogenase). AID 894, 2007. 15-hydroxyprostaglandin dehydrogenase [NAD(+)] (Homo sapiens), P15428. Potency, µM, for the others: top-dose activity change, negative = inhibition, most hits filed as inhibitors. purified HPGD, NADH fluorescence kinetic, PGE2 substrate. 4.3% of 150,000 active; active = well fitted inhibition curve with a large enough effect (not every such curve was filed as active); inconclusive = small, poorly fitted or top-dose-only effect, or another doubt; inactive = no such curve, though single readings can be large or run the other way;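 also: top concentration of the series not given in the record; plate controls included wells without enzyme; inactives centre near -10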
Target sequence (P15428 whole entry, looked up): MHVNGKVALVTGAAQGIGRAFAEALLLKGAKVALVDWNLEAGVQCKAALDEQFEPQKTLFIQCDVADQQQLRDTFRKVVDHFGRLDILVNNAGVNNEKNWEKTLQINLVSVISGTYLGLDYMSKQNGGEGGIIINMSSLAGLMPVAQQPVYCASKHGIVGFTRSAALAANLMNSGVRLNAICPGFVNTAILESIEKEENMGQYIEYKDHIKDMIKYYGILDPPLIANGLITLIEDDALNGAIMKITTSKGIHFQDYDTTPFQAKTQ
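20 nM HPGD preincubated 15 min at room temperature with compound in 50 mM Tris-HCl pH 8, 0.01% Tween 20. Started with 1 mM NAD+ and 30 uM prostaglandin E2; NADH fluorescence (360/450 nm) read 5 times over 30-s intervals, last minus first.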
Numbers without * were called inactive; ? = inconclusive; & = joins results of further samples. % is scaled to controls: 0 for no effect and ±100 for the full control effect; potency is read from the fitted curve at half-maximal effect. Some of the compounds tested (hit frequency here may not be typical).

HPGD inh | SMILES
-4% | COc1ccc(C(=O)CSc2nnc(NC(=O)C3CC(=O)N(c4cccc(OC)c4)C3)s2)cc1 (centres undefined)
1% | CC1CN(CCOc2ccccc2-c2ccccc2)CC(C)O1 (centres undefined)
? | COc1cc(OC)cc(-c2nnc(Nc3nc4c(F)cccc4s3)o2)c1
-8% | NC(=O)Cc1nc(-c2ccccc2)cs1
2% | CCN(CC)S(=O)(=O)c1ccc(Cl)c(NC(=O)c2ccc(C#N)cc2)c1
? | CCOCC(=O)Nc1c(C(=O)Nc2ccc(OC)cc2OC)oc2ccccc12
-6% | CC1(C)CC(NC(=O)CC2CCCCC2)CC(C)(C)N1
-20% | Nc1cc(S(=O)(=O)O)cc2ccc(S(=O)(=O)O)cc12
-4% | O=C(NCc1ccc2c(c1)OCO2)c1ccc(N2C(=O)C3CCCCC3C2=O)cc1 (centres undefined)
-27% | Cc1cc(N2CCN(C)CC2)nc2ccc(NC(=O)c3ccc(Br)o3)cc12
-8% | Cc1ccc(C)c(S(=O)(=O)N2CCN(C(=O)Cn3c(C(F)(F)F)nc4ccccc43)CC2)c1
-6% | Cc1ccc(C)c(N2CCN(C(=O)CCCN3C(=S)NC(C)(C)CC3C)CC2)c1 (centres undefined)
-1% | Cn1c(COc2ccccc2)nnc1SCC(=O)Nc1ccc(N2CCOCC2)c(Cl)c1
-14% | CC1CCCCN1c1nc(-c2ccncc2)nc2ccccc12 (centres undefined)
-17% | Cc1ccc(S(=O)(=O)N/N=C\c2ccc3c(c2)OCO3)cc1
-10% | COc1cc2c(cc1OC)CN(Cc1cccs1)CC2
-9% | O=C(NCc1cccnc1)C(=O)NCC1OCCN1S(=O)(=O)c1ccccc1 (centres undefined)
-6% | CCCC1c2c(ccc3ccccc23)Oc2ccc3ccccc3c21
-3% | COc1ccc(N2C(=O)/C(=C/c3ccc([N+](=O)[O-])cc3)C=C2c2ccccc2)cc1
-10% | Cc1ccc(NC(=O)c2cc(S(=O)(=O)N3CCC4(CC3)OCCO4)ccc2F)cc1
-6% | Cn1c(=O)cc(OCCCC(=O)Nc2cccnc2)c2ccccc21
-27% | Cc1nn(-c2ccccc2)c2sc(C(=O)NC3CC3)cc12
32µM* | COCCCNC(=O)c1ccccc1SC
-20% | Cc1cc(N2CCC(C(=O)Nc3ccc(F)cc3)CC2)nc(-c2ccccc2)n1
2% | CC(=O)NC(Cc1ccccc1)C(=O)OCC(=O)c1ccccc1 (centres undefined)
0% | CC1Cc2ccccc2N1S(=O)(=O)c1cccc(C(=O)c2nccn2C)c1 (centres undefined)
-18% | O=S(=O)(Nc1cc2nc3ccccc3nc2n1Cc1ccccc1)c1ccc(Cl)cc1
-5% | CCc1cccc(CC)c1N(COC)C(=O)Cn1c(C(C)O)nc2ccccc21 (centres undefined)
-6% | Cn1c(SCC(=O)NCc2ccco2)nnc1-c1ccccc1
? | COc1ccc(C(=O)Nc2ccc(Cl)c(Cl)c2)c(OC)n1
-8% | Cc1[nH]c(=O)c(C(=O)/C=C/c2ccccc2)c2c1CCCC2
1% | CS(=O)(=O)N(CC(=O)N1CCC(C(N)=O)CC1)c1ccc(Cl)c(C(F)(F)F)c1
13µM* | COc1cc(CNn2c(C)n[nH]c2=S)cc(Cl)c1OCc1ccc(F)cc1
-13% | CCCN1C(=O)c2cccc3c(N4CCCCC4)ccc(c23)C1=O
-8% | O=C(O)CSc1nnc(Cc2ccccc2)n1Cc1ccccc1
-11% | Cc1cccc(C)c1NC(=O)C1CCCN(CCCc2ccccc2)C1 (centres undefined)
-4% | O=C(NCCCN1CCCC1=O)c1cccnc1
-9% | CCOC(=O)c1[nH]c(C)c(/C(O)=C2\C(=O)C(=O)N(CCN3CCOCC3)C2c2cccs2)c1C (centres undefined)
-2% | Cc1c(C#N)c2ncn(CCCN(C)C)c(=O)c2n1-c1ccccc1
-10% | Cc1nnc(SCc2cccs2)[nH]c1=O
-25% | CCN1C(=O)c2cccc3c(S(=O)(=O)Nc4ncccc4C)ccc1c23
-17% | O=[N+]([O-])c1cc2c(cc1/C=N/Nc1nc(N3CCCC3)nc(N3CCCC3)n1)OCO2
-15% | Cc1cccc(OCc2nc(-c3ccc(-n4cccc4)cc3)no2)c1
-8% | CCN(CC)S(=O)(=O)c1ccc(N2CCOCC2)c(NC(=O)c2cnccn2)c1
? | Cc1coc2cc3oc(=O)c(Cc4ccccc4)c(C)c3cc12
? | COc1cc2c(cc1NC(=S)Nc1cccc3ccccc13)oc1ccccc12
-12% | CCc1c(O)nc(SCC(=O)Nc2ccccc2)n(C(C)CC)c1=O (centres undefined)
14µM* | O=C(/C=C/c1ccccc1)N1CCN(c2c(Cl)cccc2[N+](=O)[O-])CC1
-18% | O=c1c2ccccc2cnn1Cc1n[nH]c(=S)n1-c1cc(Cl)cc(Cl)c1
-23% | Cc1ccc(N2CC(C(=O)N3CCc4ccccc4C3)CC2=O)cc1 (centres undefined)
-9% | CCOC(=O)C1CCN(C(c2cccs2)c2sc3nc(C)nn3c2O)CC1 (centres undefined)
? | CC(NC(=O)OC(C)(C)C)C(=O)Oc1cc2oc(=O)cc(-c3ccccc3)c2cc1Cl (centres undefined)
-15% | COc1ccc(-c2cc(C3CCN(c4cc(Cl)nc(N)n4)CC3)[nH]n2)cc1
-8% | CN(C)CCN(C)C(=O)c1ccc(-n2c(=O)c(=O)[nH]c3ccccc32)cc1
-11% | COc1cccc(C(=O)N(c2ccc(OC)cc2OC)C2C=CS(=O)(=O)C2)c1 (centres undefined)
-10% | COc1ccccc1CN(C)C(=O)c1ccc2c(c1)NC(=O)CS2
-16% | COC(=O)c1ccccc1NC(=O)c1ccccc1NS(C)(=O)=O
-25% | Cc1cc(S(=O)(=O)NCc2ccccc2)ccc1OCC(=O)Nc1cccc([N+](=O)[O-])c1
-19% | Cc1ccc(C(=O)NNC(=O)CSc2nnc3c(n2)[nH]c2ccc(F)cc23)cc1
-20% | COc1ccccc1CCNC(=O)c1cnn2c(C(F)F)cc(C)nc12

The list goes on.
HPGD inh | SMILES
-8% | Cc1nc(=O)c(-c2ccccc2)c(C)n1-c1ccc(C(=O)O)cc1
-15% | Cn1cccc1CC(=O)NNC(=O)Nc1ccc(Cl)cc1
-8% | Cn1c(NC(=O)c2cccc(C(F)(F)F)c2)cc(=O)n(C)c1=O
-8% | O=C1OC(c2cccs2)=N/C1=C\c1ccc(-c2cccc(Cl)c2)o1
-17% | O=C(CN1CCCCC1)N1CCCc2c1c(=O)oc1ccc(OCc3ccccc3)cc21
? | Cc1c(C(=O)Nc2ccc(F)cc2)oc2ccc(S(=O)(=O)N3CCC4(CC3)OCCO4)cc12
-4% | CCN(CC)S(=O)(=O)c1ccc2c(c1)c(=O)c(C(=O)NCCCN(C)c1ccccc1)cn2C
-21% | CCCCOC(=O)c1ccc(NC(=O)c2ocnc2C)cc1
-19% | COC(=O)Cn1cnc2c(nnn2Cc2ccc(Cl)cc2)c1=O
-9% | CC1=C(C(=O)OC(C)C)C(c2cccs2)C(C(=O)OC(C)C)=C(C)N1
32µM* | Cc1ccc(-c2nc(N)sc2CC(=O)OCC(=O)NCC2CCCO2)cc1 (centres undefined)
0% | O=C1CCCCC(=O)c2ccccc2N1
-12% | O=C(CN(Cc1ccco1)S(=O)(=O)c1cccs1)Nc1ccccc1C(F)(F)F
-5% | CCN1CCN(C(=O)CCCn2c(C)c3cnn(-c4ccccc4)c(=O)c3c2C)CC1
2% | COc1ccc(NC(=O)C2CCCN(S(=O)(=O)c3cccs3)C2)cc1OC (centres undefined)
2.8µM* | Cc1oc(-c2ccccc2Cl)nc1CSc1nc2c(c(=O)[nH]1)CCC2
-10% | c1ccc(CNc2oc(-c3ccccc3)nc2-c2ccccc2)cc1
-13% | O=C(Nc1ccc(F)cc1F)c1ccc(-n2cncn2)nc1
-6% | COCCNC(=O)CN(c1cccc(OC)c1)S(=O)(=O)c1ccc(C)cc1
-27% | C[C@@H]1C(c2cccc(Cl)c2)=NN(c2ccccc2)[C@H]1C(=O)N1CCOC1=O
-5% | O=C1c2ccccc2C(=O)N1CC(=O)N1c2ccccc2Sc2ccccc21
-8% | Cc1ccc(-n2c(SCC(=O)NCc3cccs3)nnc2-c2ccoc2C)cc1
-4% | CC(C)C[C@H](NC(=O)Nc1ccccc1F)C(=O)O
-3% | CC1CC(C)CN(C(=O)c2cc(-c3ccccn3)nc3ccccc23)C1 (centres undefined)
1% | CSCCCNC(=S)N1CCN(S(=O)(=O)c2cccc(C(F)(F)F)c2)CC1
-25% | CC(=O)c1cc(C(c2csc(C(C)=O)c2)c2csc(C(C)=O)c2)cs1
-17% | O=C(CCc1nc(-c2ccccc2F)no1)Nc1ccc(Oc2ccccc2)cc1
-3% | CN(C)CCNc1ccc(Cl)cc1[N+](=O)[O-]
-6% | N=C1C(c2ccccc2)=C(O)CN1c1cccc(S(N)(=O)=O)c1
-2% | CCOC(=O)C1=C(C)Nc2nc(SCc3cccnc3)nn2C1c1ccc(OC)cc1 (centres undefined)
-13% | O=C(CSc1nnc(-c2ccccc2)o1)NCC1CCCCC1
-13% | COc1ccccc1NC(=O)C1CCCCN1S(=O)(=O)c1ccc(F)cc1 (centres undefined)
-9% | O=C(NCc1ccco1)C12CN(Cc3ccccc3)CC1C(c1cccc([N+](=O)[O-])c1)=NO2 (centres undefined)
-12% | COc1ccc(S(=O)(=O)c2ccc(O)cc2)cc1
-6% | COc1cccc(-n2cnc3sc(C)c(C)c3c2=O)c1
-9% | Cc1cc(C(=O)Nc2ccccc2C(F)(F)F)no1
-14% | CCSc1ccccc1C(=O)NCc1ccc(S(N)(=O)=O)cc1
-1% | CC(=O)N(c1ccccc1)C(C)c1nc(C#N)c(C#N)nc1C (centres undefined)
-28% | O=c1[nH]c2cc3c(cc2cc1C(c1nnnn1CC1CCCO1)N1CCCCCC1)OCO3 (centres undefined)
-20% | O=C(O)CCCC(=O)Nc1ccccc1C(=O)O
-18% | COc1ccc(C2=NCC(CSc3nnnn3C)S2)cc1 (centres undefined)
-6% | C=CCn1c(SCC(=O)Nc2ccc3c(c2)OCCO3)nnc1-c1ccccn1
0% | CCCCN1c2cc(C)c(O)cc2C(C(=O)OCC)C1C (centres undefined)
-10% | O=C(CNS(=O)(=O)c1ccc(Br)s1)N1CCCC1
-8% | Cc1ccc(NC(=O)CCC(=O)OCCCC(F)(F)C(F)(F)F)cc1
-16% | C=CCn1c(CCNC(=O)c2ccccc2F)nnc1SCc1nc2ccccc2c(=O)[nH]1
-21% | Cc1cc(C)c(S(=O)(=O)Nc2ccc3c(c2)CCC3)c(C)c1
-19% | O=S(=O)(NC1CC2CCC1C2)c1ccc2c(c1)OCCO2 (centres undefined)
-18% | O=C(O)CC/C(=N/NC(=O)c1cn(-c2ccccc2)nc1-c1ccccc1)C(=O)O
28µM* | CCOC(=O)CC1=NN(c2ccccc2)C(=O)/C1=C\c1ccc(OC)cc1OC
-11% | CCCSc1nnc(Cn2c(=O)sc3ccccc32)n1C
-5% | CS(=O)(=O)N1CCN(C(=O)Cc2ccccc2)CC1
7.1µM* | COc1cc(/C=C2\S/C(=N/S(=O)(=O)c3ccccc3)NC2=O)c([N+](=O)[O-])cc1OC
-8% | O=C(O)c1cc(NC(=O)C2CCCO2)cc(NC(=O)C2CCCO2)c1 (centres undefined)
-10% | CCOC(=O)Cc1csc(NC(=O)c2c(-c3ccccc3)noc2C)n1
-27% | N#Cc1cc2ccccc2nc1SCc1cccnc1
-8% | COc1cccc(OCCSc2nc(N)cc(N)n2)c1
-9% | O=C(NC1CCCCC1)n1c(=O)oc2cc(S(=O)(=O)N3CCCCC3)ccc21
-28% | O=C(Nc1nnc(SCc2ccccc2)s1)c1ccco1
-5% | O=C(CC(NS(=O)(=O)c1ccc(Cl)cc1)c1ccco1)NC1CCCC1 (centres undefined)
-6%&-7% | COC(=O)C1(C(=O)OC)CC2=C[C@H](CC2=O)Cc2ccccc2[C@@H]1C[N+](=O)[O-]

A section taken from the entries so far, for reference:
HPGD inh | SMILES
-21% | Cc1cc(C)c(S(=O)(=O)Nc2ccc3c(c2)CCC3)c(C)c1
-19% | O=S(=O)(NC1CC2CCC1C2)c1ccc2c(c1)OCCO2 (centres undefined)
-18% | O=C(O)CC/C(=N/NC(=O)c1cn(-c2ccccc2)nc1-c1ccccc1)C(=O)O
28µM* | CCOC(=O)CC1=NN(c2ccccc2)C(=O)/C1=C\c1ccc(OC)cc1OC
-11% | CCCSc1nnc(Cn2c(=O)sc3ccccc32)n1C
-5% | CS(=O)(=O)N1CCN(C(=O)Cc2ccccc2)CC1
7.1µM* | COc1cc(/C=C2\S/C(=N/S(=O)(=O)c3ccccc3)NC2=O)c([N+](=O)[O-])cc1OC
-8% | O=C(O)c1cc(NC(=O)C2CCCO2)cc(NC(=O)C2CCCO2)c1 (centres undefined)
-10% | CCOC(=O)Cc1csc(NC(=O)c2c(-c3ccccc3)noc2C)n1
-27% | N#Cc1cc2ccccc2nc1SCc1cccnc1
-8% | COc1cccc(OCCSc2nc(N)cc(N)n2)c1
-9% | O=C(NC1CCCCC1)n1c(=O)oc2cc(S(=O)(=O)N3CCCCC3)ccc21
-28% | O=C(Nc1nnc(SCc2ccccc2)s1)c1ccco1
-5% | O=C(CC(NS(=O)(=O)c1ccc(Cl)cc1)c1ccco1)NC1CCCC1 (centres undefined)
-6%&-7% | COC(=O)C1(C(=O)OC)CC2=C[C@H](CC2=O)Cc2ccccc2[C@@H]1C[N+](=O)[O-]
